MbtI inh = MbtI salicylate synthase inhibition | P9WFX0 | purified MbtI enzyme, fluorescence intensity read-out | inhibition, %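 (about 17 µg/mL by stock and volumes)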 | hit rate 0.89% among 100,000;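 active = above 50% in both replicates, above 80% if mildly self-fluorescent; inactive = the rest, strongly fluorescent compounds included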;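 also: 0% = mean of negative and 100% = mean of positive controls; one replicate is shown; some compounds called inactive have numbers as strong as hits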
Polio RdRp inh = poliovirus RNA polymerase inhibition; P03300; poliovirus polymerase elongation, fluorescence polarization; stronger effect = lower value; % elongation, % (compound at 16.7 µg/mL); hit rate 0.66% among 150,000; AID 588519; in the data active = % elongation below about 90%; also: some results filed as inactive read as strong as hits
Target sequence (P03300 1749-2209 limits assumed): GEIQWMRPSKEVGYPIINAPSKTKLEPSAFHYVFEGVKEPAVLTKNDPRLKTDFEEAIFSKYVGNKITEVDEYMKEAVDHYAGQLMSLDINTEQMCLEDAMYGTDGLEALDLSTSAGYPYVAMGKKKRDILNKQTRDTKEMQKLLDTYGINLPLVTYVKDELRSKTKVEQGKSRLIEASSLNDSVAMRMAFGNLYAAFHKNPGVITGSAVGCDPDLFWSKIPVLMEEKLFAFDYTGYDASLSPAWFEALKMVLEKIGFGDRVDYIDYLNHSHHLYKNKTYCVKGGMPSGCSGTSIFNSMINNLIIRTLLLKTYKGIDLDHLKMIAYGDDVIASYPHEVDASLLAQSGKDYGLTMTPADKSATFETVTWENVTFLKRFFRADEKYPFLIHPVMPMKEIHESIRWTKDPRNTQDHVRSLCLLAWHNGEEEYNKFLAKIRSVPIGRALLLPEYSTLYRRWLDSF
MenB inh = Mtb MenB enzyme inhibition. P9WNP5. MenB enzyme assay, absorbance read-out; some hits fall short of the stated cut. inhibition, %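 (about 12 µg/mL by stock and volumes)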. hit rate 0.43% among 100,000. AID 540299;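 active = mean of two replicates above 30%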;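 also: 0% = no compound and 100% = wells with inactive enzyme; the first replicate is given; strong numbers were not always called active; inactives centre near -10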
Target sequence (P9WNP5 whole entry, looked up): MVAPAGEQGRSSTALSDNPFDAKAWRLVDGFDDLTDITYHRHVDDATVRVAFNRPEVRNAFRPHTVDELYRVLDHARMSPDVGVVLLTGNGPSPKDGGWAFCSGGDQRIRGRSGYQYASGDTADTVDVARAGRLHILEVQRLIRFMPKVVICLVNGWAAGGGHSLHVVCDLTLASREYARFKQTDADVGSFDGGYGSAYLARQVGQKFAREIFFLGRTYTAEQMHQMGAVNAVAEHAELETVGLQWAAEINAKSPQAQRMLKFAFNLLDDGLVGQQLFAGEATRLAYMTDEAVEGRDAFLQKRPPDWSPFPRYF
Polio RdRp inh intensity = also measured in Polio RdRp inh; calls as there; % elongation; measured here: total intensity read-out; formula for this scale not given here;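 total fluorescence in place of polarization; lower means less elongation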
* hit, by the source's call; i = inactive; x = not tested or not shown.

SMILES | MbtI inh | Polio RdRp inh | Polio RdRp inh intensity | MenB inh
COCCNC(=O)c1ccc(Oc2ccccc2)cc1 | -2 | 104 | 107 | -4
O=C(OCc1nnc(-c2ccccc2)o1)c1cccnc1SCc1nnc(-c2ccccc2)o1 | 13 | 102 | 104 | 0
Cc1nn(-c2ccccc2)nc1C(=O)Nc1ccccc1C(=O)NCC1CC1 | 11 | 103 | 99 | 0
CCCCNCc1cccn1-c1ccccc1 | -23 | 100 | 110 | -1
CC(C)C(=O)N1c2ccccc2C(Nc2ccccc2)CC1C (stereo not given) | 0 | 102 | 101 | -14
Nc1ccc(C(=O)N/N=C2\CCCc3ccccc32)cc1 | 15 | 96 | 91 | -8
CC1CCCC(N(Cc2ccco2)C(=O)NCc2noc3ccccc23)C1C (stereo not given) | -11 | 99 | 99 | -13
CCOC(=O)c1ccc(NC(=O)Cn2c3c(sc2=O)C2c4ccccc4OCC2CS3)cc1 (stereo not given) | 3 | 103 | 106 | -15
CCn1c(=O)[nH]c(=O)c2c(N)c(C(=O)c3ccccc3OC)sc21 | 11 | 98 | 106 | 9
CCN1CCN(c2ncnc3c2c(-c2ccccc2)cn3-c2ccc(Cl)cc2)CC1 | 3 | 103 | 107 | -14
CCOc1ccc(CN(C)CC(=O)c2c(N)n(Cc3ccccc3)c(=O)n(CC)c2=O)cc1OC | -19 | 102 | 112 | -6
Cc1nnc(SCC(=O)N(C)C2CCCCC2)n1C | 10 | 98 | 97 | 4
O=C(O)CC(CC(=O)Nc1ccc(Oc2ccccc2)cc1)c1ccccc1 (stereo not given) | -6 | 101 | 102 | 11
N#Cc1cccc(NC(=O)Nc2ccc3c(c2)OCC(=O)N3Cc2ccccc2)c1 | 16 | 104 | 102 | -31
C=CCSc1ncc(Cl)c(C(=O)NCc2ccc3c(c2)OCO3)n1 | -15 | 102 | 100 | 0
CCN(CC)S(=O)(=O)c1cccc(-c2nnc(SCc3c(C)noc3C)n2CCc2ccccc2)c1 | 26 | 107 | 104 | -6
O=C(NC1CCSC1=O)c1ccc(Br)cc1 (stereo not given) | -20 | 102 | 105 | -16
CCOC(=O)c1ccc(NC(=S)NCCOC23CC4CC(CC(C4)C2)C3)cc1 | x | 103 | 100 | -1
NC(=O)C1(N2CCCCC2)CCN(C(=O)c2ccccc2)CC1 | -6 | 101 | 104 | -14
CCSc1nc(C)c2cc(OC)ccc2n1 | i | 103 | 106 | -18
O=C1CSC(N(CC(=O)N2CCc3ccccc32)Cc2ccccc2)=N1 | -3 | 110 | 112 | -2
COc1nncc(-c2cnnc(SC)n2)n1 | x | 15* | 39* | -23
O=C(COc1nncc2ccccc12)Nc1ccc(F)c(F)c1 | 0 | 108 | 106 | -47
COc1ccc(NC(=O)CS(=O)(=O)c2ccc3c(c2)S(=O)(=O)N=CN3)cc1 | 10 | 102 | 105 | -6
COCCNC(=O)c1cc(Br)cs1 | -11 | 100 | 103 | -10
CCOc1ccc(NC(=O)CN2CCN(CC)CC2)cc1 | -16 | 103 | 105 | 0
O=C(CCc1nnc2ccc(NCc3ccccc3)nn12)N1CCCC1 | 22 | 101 | 103 | 0
N#CCSCc1ccco1 | 67 | 102 | 115 | 3
CN(Cc1ccccc1)c1nc(-c2ccccc2)cs1 | 19 | 100 | 104 | -5
CN1CCC(c2cccs2)=N1 | -6 | 94 | 94 | -22
Cc1cc2cc(CN3C(=O)c4ccccc4C3=O)ccc2[nH]1 | -11 | 103 | 106 | -22
CCCCNC(=O)n1ccc(-c2nn(-c3ccc(F)cc3)ccc2=O)n1 | 11 | 102 | 101 | 0
CC1Cc2ccccc2N1S(=O)(=O)c1cnc[nH]1 (stereo not given) | -6 | 104 | 110 | -19
O=c1[nH]c2ccccc2cc1/C=N/O | 107 | 105 | 105 | 5
Cc1oc(-c2ccccc2)nc1CN1C(=O)CN=C(c2ccccc2)c2ccccc21 | -9 | 101 | 101 | -9
CCOC(=O)c1cnn(-c2ncnc3sc4c(c23)CCN(C(=O)OCC)C4)c1N | 4 | 101 | 103 | 16
Cc1[nH]c2ccccc2c(=O)c1CN1CCOCC1 | 13 | 124 | 152 | 10
Cc1ccc(C)c(CSCc2nc3ccccc3[nH]2)c1 | 0 | 102 | 100 | -39
Oc1ccc(Br)c2cccnc12 | -7 | 98 | 106 | -31
O=C(COC(=O)c1cccc(I)c1)c1ccc(-n2nncc2-c2ccco2)cc1 | -2 | 98 | 102 | -16
CCN=C1SC(C(=O)Nc2ccc(Br)cc2)CC(=O)N1CC (stereo not given) | -13 | 100 | 99 | -53
CCN(CC)C(=O)C(C(=O)c1ccccc1)n1cc(Cl)ccc1=O (stereo not given) | x | 103 | 108 | 3
CCCCn1c(SCC(=O)O)nc2ccccc21 | -8 | 100 | 101 | -23
CC(=O)N1C(NCc2ccccc2)CC(C)N1c1ccccc1 (stereo not given) | x | 103 | 109 | -3
Cc1ccc(C(=O)N/C(=C/c2ccccc2F)C(=O)N2CCCCC2)cc1 | -2 | 105 | 105 | x
COc1ccc(CCn2nnc3ccccc3c2=O)cc1OC | -4 | 104 | 104 | 7
COC(=O)c1ccc(Cn2nc(C(F)(F)F)cc2C)o1 | 2 | 102 | 101 | -11
CSc1cccc(NC(=O)CSc2nncn3c2cc2occc23)c1 | 16 | 100 | 102 | -28
O=S1(=O)CCC(NC2CCS(=O)(=O)C2)C1 (stereo not given) | x | 110 | 112 | -9
C#CCNC(=O)Nc1ccc(C)cc1 | 22 | 104 | 104 | 15
CCOC(=O)C1=C(c2ccccc2)N=C2SCC(=O)N2C1c1ccc(O)c(OC)c1 (stereo not given) | 0 | 101 | 102 | -105
O/N=C/c1cc(Cl)cc(Cl)c1 | -7 | 102 | 96 | -13
C/C(=N\NC(=O)COc1ccccc1C)c1ccccc1O | 1 | 108 | 114 | -37
COc1ccc(CCN(Cc2nc3ccccc3c(=O)[nH]2)C(=O)c2ccco2)cc1 | -1 | 100 | 99 | 2
CC1=C(C(=O)OC2CCCC2)C(c2cccc(F)c2F)CC(=O)N1 (stereo not given) | -5 | 103 | 99 | 3
COc1cc(OC)c(C2Nc3c(C)cc(C)cc3-c3cc(C)nn32)cc1OC (stereo not given) | 60 | 101 | 103 | -2
CCn1c(C(=O)O)c(CNCCc2ccccc2)c2ccccc21 | 54 | 107 | 116 | -20
N#C/C(=C\N1CCOCC1)C(=O)Nc1ccc(F)c(Cl)c1 | 6 | 102 | 103 | -5
O=C1c2ccccc2C(O)N1Cc1ccccc1 (stereo not given) | 21 | 100 | 104 | 7
O=c1[nH]c(Nc2nc3ccccc3[nH]2)nc2cc(Cl)ccc12 | 17 | 100 | 98 | 10

Next section; it opens with the 6 that closed the last part.
SMILES | MbtI inh | Polio RdRp inh | Polio RdRp inh intensity | MenB inh
CC1=C(C(=O)OC2CCCC2)C(c2cccc(F)c2F)CC(=O)N1 (stereo not given) | -5 | 103 | 99 | 3
COc1cc(OC)c(C2Nc3c(C)cc(C)cc3-c3cc(C)nn32)cc1OC (stereo not given) | 60 | 101 | 103 | -2
CCn1c(C(=O)O)c(CNCCc2ccccc2)c2ccccc21 | 54 | 107 | 116 | -20
N#C/C(=C\N1CCOCC1)C(=O)Nc1ccc(F)c(Cl)c1 | 6 | 102 | 103 | -5
O=C1c2ccccc2C(O)N1Cc1ccccc1 (stereo not given) | 21 | 100 | 104 | 7
O=c1[nH]c(Nc2nc3ccccc3[nH]2)nc2cc(Cl)ccc12 | 17 | 100 | 98 | 10
COc1ccc(CCN(C)C(=O)c2ccc3c(c2)C(=O)N(Cc2ccco2)C3=O)cc1OC | -6 | 104 | 105 | 0
CC(=O)Nc1ccc(Nc2c3c(c(C#N)c4nc5ccccc5n24)CCC3)cc1 | -5 | 100 | 105 | -35
N#Cc1c(SCC(=O)NC23CC4CC(CC(C4)C2)C3)sc2c(=O)[nH]c(=O)[nH]c12 | 4 | 100 | 102 | -16
Cc1ccc(S(=O)(=O)NCc2c(C)nn(C)c2C)cc1 | -10 | 103 | 105 | -27
COC(=O)c1ccc(COC(=O)Cc2n[nH]c(=O)c3ccccc23)o1 | -1 | 103 | 109 | -39
O=C(Sc1ccc(Cl)cc1)c1ccc(-c2cccs2)s1 | 11 | 104 | 112 | -15
CCOC(=O)c1cc2c(ccn2-c2ccc(F)cc2)n1CC(=O)N1CCc2ccccc21 | 43 | 101 | 104 | -20
O=C1NC(=O)C(=Cc2ccc(N3CCCC3)cc2)C(=O)N1 | -353 | 100 | 103 | -89
CSc1ccccc1C(=O)N1CC(C)OC(C)C1 (stereo not given) | -15 | 100 | 101 | -14
O=C(/C=C/c1ccco1)N1C(=Nc2ccccc2)SCc2ccccc21 | -13 | 102 | 96 | -6
COc1cc(CN(C)C(=O)C2CCN(C(C)=O)CC2)ccc1OCc1ccccc1 | 1 | 101 | 105 | -31
CCN(C(=O)CSc1ccccn1)c1c(N)n(Cc2ccccc2)c(=O)[nH]c1=O | 41 | 102 | 95 | 10
CNC(=O)c1cc2c(s1)CCCCCC2 | 1 | 100 | 103 | -1
Cc1cccnc1/N=C/c1c(O)n(-c2ccccc2F)c(=O)c2ccccc12 | -8 | 106 | 106 | x
O=C(NNc1nc2c(F)cccc2s1)c1ccc(S(=O)(=O)N2CCCC2)cc1 | 6 | 100 | 104 | -32
O=C(c1ccc(Cl)cc1)C1CN(Cc2ccco2)CCC1(O)c1ccc(Cl)cc1 (stereo not given) | 14 | 101 | 102 | x
COc1cc(OC)c(OC)cc1/C=C/C(=O)N1CCN(C)CC1 | -3 | 105 | 101 | -7
O=C(NCc1n[nH]c(=O)c2ccccc12)c1ccco1 | 6 | 102 | 107 | -9
O=C(NCC(c1ccco1)N1CCc2ccccc2C1)c1ccccc1 (stereo not given) | -4 | 101 | 108 | 4
Cc1cc(C)c(C#N)c(SCC(=O)n2nc(C)cc2C)n1 | 1 | 104 | 102 | -15
CCOC(=O)Cc1cc(C(=O)c2ccc(OC)cc2)sc1-c1ccc(OC)cc1 | 9 | 101 | 104 | -31
COC(=O)c1ccsc1NC(=O)c1cccs1 | 1 | 102 | 106 | -4
CCOC(=O)NC(=S)c1cccn1C | 26 | 102 | 99 | -34
O=C(NCCSc1nc2ccccc2o1)c1ccccc1 | 20 | 101 | 104 | x

A different layout for 2 compounds above:
Structure,MbtI inh,Polio RdRp inh,Polio RdRp inh intensity,MenB inh
O=C(c1ccc(Cl)cc1)C1CN(Cc2ccco2)CCC1(O)c1ccc(Cl)cc1 (stereo not given),14,101,102,x
COC(=O)c1ccsc1NC(=O)c1cccs1,1,102,106,-4

Additional structures:
SMILES | MbtI inh | Polio RdRp inh | Polio RdRp inh intensity | MenB inh
CC(=O)N1CC(c2cnc(-c3ccccc3)c(C)c2)C=C(C)C1c1ccccc1 (stereo not given) | x | 103 | 105 | -25
CCOC(=O)c1c(-c2cccs2)csc1NC(=O)CN1CCC(C)CC1 | -15 | 99 | 102 | -31
Cc1onc(-c2ccccc2Cl)c1C(=O)N1CCCCC1C (stereo not given) | x | 97 | 101 | -1
Cc1ccc(N2CC(O)=C(c3nc4ccccc4s3)C2=N)c(C)c1 | i | 99 | 103 | -16
COc1ccc(Cl)c(N=C2NC(=O)/C(=C\c3cccnc3)S2)c1 | 17 | 100 | 103 | -48
COc1ccc(CNC(=O)COC(=O)C2CC3C=CC2C3)cc1 (stereo not given) | -7 | 104 | 106 | -15
CC(NCc1ccc2c(c1)OCO2)C(=O)Nc1cc(Cl)cc(Cl)c1 (stereo not given) | -2 | 100 | 104 | -4
Cc1ccc(SCC(=O)N(c2ccccc2)C(C)C)cc1 | -3 | 102 | 105 | x
Cc1csc(SCC(=O)c2ccc(O)cc2O)n1 | 14 | 100 | 101 | 4
CC(Oc1ccc2c(c1)OCO2)C(=O)c1ccc(OC(F)F)cc1 (stereo not given) | -9 | 100 | 105 | -7
COc1ccc(-c2noc(=O)n2Cc2ccccc2)cc1 | -8 | 103 | 102 | -15
O=C(O)CCCC(=O)N1CC(=O)Nc2ccccc21 | 2 | 101 | 103 | 15
COc1ccc(OCC(=O)Nc2ncccc2C)cc1 | -7 | 100 | 103 | -14
Cn1c(C(=O)O)cc2ccccc2c1=O | 99 | 101 | 106 | -23
COc1ccc(/C=C(/NC(=O)c2ccccc2)C(=O)N2CC(C)OC(C)C2)cc1 (stereo not given) | 4 | 105 | 106 | -7
O=c1n(Cc2ccc(Br)cc2)nnn1-c1ccccc1 | -11 | 105 | 108 | -20
Cn1ccnc1-c1nc2ccccc2[nH]c1=O | -45 | 103 | 108 | -73
Cc1ccc(N2C(=O)N(c3ccccc3)C(=N)C2=S)cc1Cl | 45 | 68* | 77* | 2
N#CCn1cc(C(=O)C(F)(F)F)c2ccccc21 | 4 | 101 | 110 | -43
Cc1sc(NC(=O)/C=C/C(=O)O)c(C#N)c1C | 5 | 99 | 103 | -11
C=CCSc1nc2ccccc2c(=O)n1CC1CCCO1 (stereo not given) | 0 | 99 | 105 | -28
CCN(CC)CCOc1ccc(/C(=C(\Cl)c2ccccc2)c2ccccc2)cc1 | -12 | 100 | 100 | 1
Cc1cccc(N2CCN(C(=O)CCNS(=O)(=O)c3cccc4nsnc34)CC2C)c1 (stereo not given) | 12 | 100 | 100 | -7

Compound profiles (already shown).
Shown for `Cc1cccc(N2CCN(C(=O)CCNS(=O)(=O)c3cccc4nsnc34)CC2C)c1` (stereo not given) → MbtI inh = 12; Polio RdRp inh = 100; Polio RdRp inh intensity = 100; MenB inh = -7
Shown for `O=c1n(Cc2ccc(Br)cc2)nnn1-c1ccccc1` → MbtI inh = -11; Polio RdRp inh = 105; Polio RdRp inh intensity = 108; MenB inh = -20

Assay outcomes as filed in PubChem.
